Source: PubChem (National Center for Advancing Translational Sciences (NCATS))
Menin-MLL FL inh = inhibitors of human menin-MLL interaction, wild-type MLL peptide. FP activity change, % at 61.4 µM. 290,000 tested, under 10 active. Fluorescence polarization, fluorescein-MLL peptide displacement from menin. AID 1766; inconclusive = falling polarisation curve, or a change in total fluorescence; inactive = total fluorescence flat and polarisation flat or rising; no compound was filed as active; the % refers to the polarisation; negative = inhibition;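 note: % of control where 0% means no effect; inhibitors lower the polarisation; unlabelled MLL peptide was the positive control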
Sfp inh = inhibitors of Bacillus subtilis Sfp phosphopantetheinyl transferase | Q9F4F7 | Biochemical Sfp PPTase activity, qHTS | Potency, µM, for the others: max response, negative = inhibition, usual class: inhibitors | hit rate 3.5% among 310,000; active = well fitted inhibition curve with a large enough effect; inconclusive = small, poorly fitted or top-dose-only effect, or another doubt; inactive = no such curve, though single readings can be large or run the other way;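 note: the enzyme is Sfp with the accession as filed and its product quenches rhodamine fluorescence; potency is the fitted concentration of half-maximal effect; 0% = enzyme reaction without inhibitor and -100% = no enzyme wells; top concentration of the series not given in the record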
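Compounds were incubated with enzyme (final 15 nM) for 15 min at room temperature before substrate addition started the reaction. Fluorescence at 525 nm excitation, 598 nm emission was recorded immediately and after 30 minutes.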
gsp ag = activates gsp, the McCune-Albright syndrome mutation | gsp mutant cells, cAMP HTRF, 30 min; control for the full effect not named in the record | Potency, µM (highest dose often 76.9 µM), for inactives: at the highest dose activation (cAMP increase), most hits filed as activators | hit rate 0.13% among 340,000 | AID 624287; active = well fitted activation curve with a large enough effect; inconclusive = small, poorly fitted or top-dose-only effect, or another doubt; inactive = no such curve, though single readings can be large or run the other way; cell line not stated here;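 note: phosphodiesterase inhibitor Ro 20-1724 added with compounds to block cAMP breakdown; potency is the fitted concentration of half-maximal effect; nearly all actives have a fitted effect of over 60% in size; about a fifth of the inactives were tested at one dose only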
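Cells in DMEM/10% FBS with G418 were pretreated with compounds in DMSO plus […] (300 uM stock) for 30 min at 37C. cAMP was measured by HTRF (cAMP-d2 plus anti-cAMP antibody-K) after 30 min at room temperature.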
ClpP mod = qHTS Assay for Activators of ClpP; purified B. subtilis ClpP, FRET peptide cleavage, 20 min; hit rate 1.9% among 340,000; Potency, µM (highest dose often 57.5 µM), for inactives: at the highest dose activity change, negative = active; AID 651965, 2013; active = well fitted falling curve with a large enough effect; inconclusive = small, poorly fitted or top-dose-only effect; inactive = no such curve, though single readings can be large or run the other way; note: potency is the fitted concentration of half-maximal effect; the source files actives as falling curves though it sought activators and does not explain the sign; nearly all actives have a fitted effect of over 65% in size; many hits overshoot -100%
Target sequence (P80244 whole entry, looked up): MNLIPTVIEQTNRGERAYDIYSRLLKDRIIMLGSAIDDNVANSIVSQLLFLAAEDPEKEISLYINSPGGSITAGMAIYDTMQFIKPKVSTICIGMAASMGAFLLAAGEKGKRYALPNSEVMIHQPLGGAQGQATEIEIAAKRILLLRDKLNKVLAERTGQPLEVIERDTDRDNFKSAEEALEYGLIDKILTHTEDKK
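Buffer: 100 mM Tris/HCl pH8, 100 mM KCl, 0.05% low protease BSA, 2.5% glycerol, 0.01% Tween-20. ClpP 10 microg/mL final; 20 min RT; delta FRET normalized to ADEP and DMSO controls.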
PINK1 expr mod = PINK1 expression modulation. PINK1 immunofluorescence, high-content cytometry, 24 h. Potency, µM (top dose mostly 76.6 µM), inactives show top-dose activation (PINK1 increase), hits mostly activators. hit rate 0.2% among 410,000; active = well fitted activation curve with a large enough effect; inconclusive = small, poorly fitted or top-dose-only effect; inactive = flat fitted curve, though single readings scatter; cell line not stated here;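 note: potency is the fitted concentration of half-maximal effect; % of control where 0% means no effect; nearly all actives have a fitted effect of over 65% in size; a mitochondrial uncoupler was the plate control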
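A stable cell line was treated with compounds at 5 concentrations for 24 hours, with CCCP as control. PINK1 levels and mitochondrial localization were measured by immunofluorescence with mitochondrial, cell and nuclear markers after fixation, read by laser-scanning cytometry.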
gsp antagonist = antagonizes gsp, the McCune-Albright syndrome mutation; AID 624288; Potency, µM (highest dose often 76.9 µM), for inactives: at the top dose activity change, negative = inhibition, most hits filed as inhibitors; gsp-mutant cells, cAMP HTRF, 30 min; control for the full effect not named in the record; hit rate 0.4% among 340,000; active = falling curve of any shape with a large fitted effect; inconclusive = falling curve, mostly with a smaller effect; inactive = flat or rising curve; cell line not stated here;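 note: intracellular cAMP measured with PDE inhibitor Ro 20-1724 present during compound exposure; potency is the fitted concentration of half-maximal effect; % is set by controls: 0 for no effect and ±100 for the full control effect; nearly all actives have a fitted effect of over 65% in size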
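Cells in G418 medium, seeded 16-24 h, 37C; buffer exchange to DPBS + 1 mM CaCl2, 0.5 mM MgCl2, 0.05% BSA; cpds in DMSO + […] (300 uM stock), 30 min 37C; HTRF cAMP detection.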
D2 agonist = human D2 receptor agonism in beta-arrestin assay; DiscoveRx PathHunter D2 beta-arrestin, luminescence, 90 min; 100% = 57 uM dopamine signal; activation, % (test concentration not listed); hit rate 0.084% among 360,000; AID 624465; in the data active = activation above about 40%; inconclusive = about 15% to 40%; inactive = below about 15%; note: compound concentration not given in the record; the text of the record calls up to 30% inactive
Target sequence (P14416 whole entry, looked up): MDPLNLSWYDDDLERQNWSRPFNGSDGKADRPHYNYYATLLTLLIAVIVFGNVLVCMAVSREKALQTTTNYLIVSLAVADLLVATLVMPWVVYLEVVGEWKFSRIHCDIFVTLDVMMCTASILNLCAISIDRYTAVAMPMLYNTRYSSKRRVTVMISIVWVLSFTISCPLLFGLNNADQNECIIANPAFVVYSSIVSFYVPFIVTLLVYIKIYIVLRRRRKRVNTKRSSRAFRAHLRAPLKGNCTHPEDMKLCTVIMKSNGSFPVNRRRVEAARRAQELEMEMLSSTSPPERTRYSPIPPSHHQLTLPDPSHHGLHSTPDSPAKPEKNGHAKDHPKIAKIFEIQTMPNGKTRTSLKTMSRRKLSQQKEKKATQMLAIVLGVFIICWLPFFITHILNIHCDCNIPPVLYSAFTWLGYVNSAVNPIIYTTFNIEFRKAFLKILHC
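DiscoveRx PathHunter D2 beta-arrestin cells (2,100/well) attached overnight, then compound-stimulated 90 min at 37 C in HBSS/10 mM HEPES/0.1% Tween-20 buffer; beta-galactosidase complementation read by luminescence after 1 h at ambient temperature. Dopamine 57 uM final (EC100) as control.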
An asterisk follows results filed as active; [ ] = another dose, or the depositor's remark.

For COc1cc(/C=N/NC(=O)c2cccc([N+](=O)[O-])c2)ccc1OCc1ccc(C)cc1 the results were Menin-MLL FL inh 1.7, Sfp inh 2.1%, gsp ag 2.2%, ClpP mod 0.4%, PINK1 expr mod 3.2%, gsp antagonist 13.5% and D2 agonist 1.7.
For COC(CNC(=O)c1ccc2c3c(onc13)-c1ccccc1C2=O)OC the results were Menin-MLL FL inh inconclusive, Sfp inh 17.8µM*, gsp ag -21.8%, PINK1 expr mod 0.3%, gsp antagonist -17.9% and D2 agonist 11.4.
`O=C(CN1CCNCC1)N1CCOCC1` gave ClpP mod 1.4%, PINK1 expr mod -0.5% and D2 agonist -5.3.
OCC1(CC2CCCCO2)CCN(Cc2nc3ccccc3[nH]2)CC1 (stereo not drawn) was read as Menin-MLL FL inh -0.1, Sfp inh 24.7%, gsp ag 5.5%, ClpP mod -7.3%, PINK1 expr mod -0.2%, gsp antagonist 5.6% and D2 agonist -2.4.
`O=C(OCc1nnc(-c2ccccc2)o1)c1cccc(S(=O)(=O)N2CCOCC2)c1` gave gsp ag 6.8%[15.4 µM], ClpP mod -2.5%, PINK1 expr mod 0.3%, gsp antagonist -14.7% and D2 agonist -5.8.
COc1ccccc1C(=O)NC(=O)OCCn1c(C)cnc1[N+](=O)[O-] was read as Menin-MLL FL inh -1.0, Sfp inh 27.4%, gsp ag -17.9%, ClpP mod -3.0%, PINK1 expr mod 1.0%, gsp antagonist -4.5% and D2 agonist 0.8.
COc1ccccc1NC(=O)C1CCN(C(=O)NCc2ccccc2)CC1 was read as Menin-MLL FL inh -0.5, Sfp inh 8.1%, gsp ag -0.7%, ClpP mod 0.8%, PINK1 expr mod 1.3%, gsp antagonist 5.0% and D2 agonist -4.3.
`CCN(CC)S(=O)(=O)c1cccc(-c2nn(-c3ccccc3)cc2/C=C(\C#N)C(=O)NCc2ccco2)c1` gave Menin-MLL FL inh 4.6, Sfp inh 10.9%, gsp ag inconclusive, ClpP mod -10.0%, PINK1 expr mod 3.8%, gsp antagonist 3.8% and D2 agonist -4.9.
CC(C(=O)Nc1ccccc1-c1ccccc1)N1CCN(Cc2ccccc2)CC1 (stereo not drawn) was read as Menin-MLL FL inh 0.4, Sfp inh 5.3%, gsp ag -3.9%[15.4 µM], PINK1 expr mod -0.3%, gsp antagonist -9.6% and D2 agonist -5.4.
For COC(=O)[C@H](Cc1ccccc1)NC(=O)N1CCN(c2ccc(F)cc2)CC1 the results were Menin-MLL FL inh -2.3, Sfp inh 1.7%, gsp ag -35.7%[inhibitor], ClpP mod -1.4%, PINK1 expr mod -1.1%, gsp antagonist -22.2% and D2 agonist -2.5.
`O=S(=O)(c1cccc2cccnc12)N1CCCCC1` gave Sfp inh 4.4%, gsp ag 0.5%[15.4 µM], ClpP mod -1.4%, PINK1 expr mod 0.1%, gsp antagonist 4.8% and D2 agonist 1.2.
Screening Cc1ccc(NC2=C(Cl)C(=O)OC2OC(C)C)cc1 (stereo not drawn) returned Menin-MLL FL inh -3.1, Sfp inh 18.6%, gsp ag -36.0%, ClpP mod 1.1%, PINK1 expr mod -0.2%, gsp antagonist -1.8% and D2 agonist -5.4.
CC1CN(C(=O)CSc2nnc(-c3ccccc3)o2)CC(C)O1 (stereo not drawn) was read as Sfp inh 9.0%, gsp ag inconclusive, ClpP mod -0.8%, PINK1 expr mod -0.2%, gsp antagonist 13.7% and D2 agonist -0.5.
For O=C(NC1CCCCCC1)C1c2ccccc2C(=O)N1Cc1cccs1 (stereo not drawn) the results were Menin-MLL FL inh 4.9, Sfp inh 4.7%, gsp ag 10.7%[15.4 µM], ClpP mod -2.6%, PINK1 expr mod 2.3%, gsp antagonist 3.8% and D2 agonist 2.2.
`CCOC(=O)NC(NS(=O)(=O)c1ccccc1)(C(=O)OCC)C(F)(F)F` (stereo not drawn) gave Sfp inh -4.3%, gsp ag -53.5%[inhibitor], ClpP mod inconclusive, PINK1 expr mod 0.3%, gsp antagonist 7.1% and D2 agonist -0.7.
Screening O=[N+]([O-])c1ccc(-c2nc(C(Cl)Cl)c3ccccc3n2)cc1 returned Menin-MLL FL inh -1.2, Sfp inh 1.5%, gsp ag inconclusive, PINK1 expr mod -0.4%, gsp antagonist -3.8% and D2 agonist -3.2.
Screening Cc1nn(CCS(=O)(=O)c2ccc(Cl)cc2)c(C)c1Br returned Menin-MLL FL inh -0.9, Sfp inh 4.1%, gsp ag -3.7%[15.4 µM], ClpP mod -0.1%, PINK1 expr mod 7.0%, gsp antagonist 13.4% and D2 agonist -4.0.
Screening COc1cc(/C=N/NC(=O)CN(CCc2ccccc2)S(=O)(=O)c2ccc(NC(C)=O)cc2)cc(OC)c1OC returned Menin-MLL FL inh -3.2, Sfp inh 5.8%, gsp ag -16.0%, ClpP mod -12.6%, PINK1 expr mod 1.3%, gsp antagonist 3.5% and D2 agonist -0.1.
`CC(=O)c1cccc(-c2ccc3c(=O)[nH]c(Nc4ccccc4)cc3c2)c1` gave ClpP mod -1.8%, PINK1 expr mod 2.8%, gsp antagonist -16.8% and D2 agonist 2.5.
CNC(=O)c1c(NC(=O)c2ccc(S(=O)(=O)N(C)c3ccccc3)cc2)sc2c1CCN(C(C)C)C2 was read as Menin-MLL FL inh inconclusive, Sfp inh -16.1%, gsp ag inconclusive, ClpP mod -1.2%, PINK1 expr mod 9.7%, gsp antagonist -18.2% and D2 agonist -2.1.
Screening CCOC(=O)CCNC(=O)N1CCCC(N(C)CCc2ccccc2)C1 (stereo not drawn) returned Menin-MLL FL inh -3.1, Sfp inh 2.3%, gsp ag -17.7%, ClpP mod -0.8%, PINK1 expr mod 2.4%, gsp antagonist 14.3% and D2 agonist -2.4.
CCn1cc(Br)c(C(=O)NC(C)c2ccccc2)n1 (stereo not drawn) was read as Menin-MLL FL inh 5.3, Sfp inh 9.2%, gsp ag inconclusive, ClpP mod 0.8%, PINK1 expr mod 1.2%[38.3 µM], gsp antagonist 8.1% and D2 agonist 0.6.
For O=C(NS(=O)(=O)c1ccc(Cl)cc1)c1ccccc1 the results were Menin-MLL FL inh 4.3, Sfp inh 14.0%, gsp ag -30.5%[inhibitor], ClpP mod 2.7%, PINK1 expr mod 2.2%, gsp antagonist 5.2% and D2 agonist 2.2.
Screening Cc1ccc(S(=O)(=O)N2CCOCC2)cc1NC(=O)CSc1nnc(C2CC2)n1C1CC1 returned gsp ag -4.9%, ClpP mod -0.8%, PINK1 expr mod -0.3%, gsp antagonist 3.5% and D2 agonist 4.8.
Screening COC(=O)c1ccc(/C=N/N2CCN(Cc3ccc(Cl)cc3)CC2)cc1 returned Menin-MLL FL inh 4.3, Sfp inh 7.3%, gsp ag -14.1%, ClpP mod -5.4%, PINK1 expr mod 8.6%, gsp antagonist 7.7% and D2 agonist -3.5.
COC(=O)/C(C#N)=C/c1c(N2CCN(c3cccc(Cl)c3)CC2)nc2c(C)cccn2c1=O was read as Menin-MLL FL inh -1.7, Sfp inh -3.9%, gsp ag 22.2%, ClpP mod -2.1%, PINK1 expr mod 1.0%, gsp antagonist -12.5% and D2 agonist -2.3.
COc1ccc(CN2C(=O)NC3(CCCc4ccccc43)C2=O)cc1F (stereo not drawn) was read as Menin-MLL FL inh 2.4, Sfp inh 4.7%, gsp ag 16.5%[15.4 µM], PINK1 expr mod -0.1%, gsp antagonist -0.6% and D2 agonist -0.3.
For O=C(Nc1ccc([N+](=O)[O-])cc1)N1CCCCC1 the results were Menin-MLL FL inh -1.0, Sfp inh 13.2%, gsp ag 13.9%, ClpP mod -0.3%, PINK1 expr mod 1.4%, gsp antagonist 0.9% and D2 agonist -3.5.
CC(C)c1ccc(CC(=O)N2CCC2(C)C(=O)NS(=O)(=O)c2ccc(F)cc2F)cc1 (stereo not drawn) was read as ClpP mod 0.6%, PINK1 expr mod 0.4% and D2 agonist -3.7.
COC(=O)c1ccc(NC(=O)c2cc[n+](Cc3ccccc3)cc2)cc1 was read as Menin-MLL FL inh 0.6, Sfp inh -19.1%, gsp ag -40.7%[inhibitor], ClpP mod 1.3%, PINK1 expr mod -1.4%, gsp antagonist 1.9% and D2 agonist -2.8.
For COC(C[C@H](O)[C@H](C)[C@H](O)COCc1ccccc1)OC the results were Menin-MLL FL inh -5.1, Sfp inh 20.2%, ClpP mod 0.6%, PINK1 expr mod 2.7%, gsp antagonist 9.2% and D2 agonist -1.0.
CCn1nnnc1SCC(=O)Nc1nc2ccc(OC)cc2s1 was read as Menin-MLL FL inh 2.5, Sfp inh 16.5%, gsp ag -27.9%, ClpP mod 0.9%, PINK1 expr mod -1.1%, gsp antagonist -3.5% and D2 agonist 0.1.
Screening O=S(=O)(c1ccc(F)cc1)N1CCc2ccccc2C1 returned Menin-MLL FL inh 0.2, Sfp inh 7.0%, gsp ag 7.9%[15.4 µM], ClpP mod 0.6%, PINK1 expr mod 5.9%, gsp antagonist 7.2% and D2 agonist 2.0.
Cc1c(O)ccc2c3c(c(=O)oc12)CCCC3 was read as Menin-MLL FL inh -1.2, Sfp inh 1.1%, gsp ag -0.6%, ClpP mod 25.1µM*, PINK1 expr mod -0.8%, gsp antagonist 23.1% and D2 agonist 1.7.
Screening Nc1ccc2c(c1)C(=O)c1ccc(Cl)cc1-2 returned gsp ag 0.3%, PINK1 expr mod 4.9%, gsp antagonist -18.9% and D2 agonist 3.5.
Screening O=C(COC(=O)c1ncc(Cl)c(Cl)c1Cl)NCc1cccs1 returned gsp ag -37.2%[inhibitor], ClpP mod 1.9%, PINK1 expr mod 0.5%, gsp antagonist -15.7% and D2 agonist 0.0.
For O=C(CNC(=O)c1ccc(Br)o1)NNC(=O)COc1ccccc1Cl the results were gsp ag -10.0%, ClpP mod -1.4%, PINK1 expr mod 1.5%, gsp antagonist -2.3% and D2 agonist 6.8.
`C=C1C(=O)O[C@H]2[C@H]1[C@@H](O)CC(=C)[C@@H]1CC(=O)[C@@H](C)[C@H]21` gave Menin-MLL FL inh 2.1, Sfp inh 6.3%, gsp ag 37.4%, PINK1 expr mod 4.1%, gsp antagonist -14.4% and D2 agonist -3.7.
CC(C=Cc1ccccc1)=NNS(=O)(=O)c1ccc([N+](=O)[O-])cc1 was read as gsp ag -22.0%, PINK1 expr mod -1.9%, gsp antagonist -15.4% and D2 agonist 0.8.
